From PubChem BioAssay
HPGD inh: qHTS Assay for Inhibitors of HPGD (15-Hydroxyprostaglandin Dehydrogenase); 15-hydroxyprostaglandin dehydrogenase [NAD(+)] (Homo sapiens), P15428; hit rate 4.3% among 150,000; purified HPGD, NADH fluorescence kinetic, PGE2 substrate; Potency, µM, without a hit: top-dose activity change, negative = inhibition, hits mostly inhibitors; active = well fitted inhibition curve with a large enough effect (not every such curve was filed as active); inconclusive = small, poorly fitted or top-dose-only effect, or another doubt; inactive = no such curve, though single readings can be large or run the other way;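 further: top concentration of the series not given in the record; plate controls included wells without enzyme; inactives centre near -10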
Target sequence (P15428 whole entry, looked up): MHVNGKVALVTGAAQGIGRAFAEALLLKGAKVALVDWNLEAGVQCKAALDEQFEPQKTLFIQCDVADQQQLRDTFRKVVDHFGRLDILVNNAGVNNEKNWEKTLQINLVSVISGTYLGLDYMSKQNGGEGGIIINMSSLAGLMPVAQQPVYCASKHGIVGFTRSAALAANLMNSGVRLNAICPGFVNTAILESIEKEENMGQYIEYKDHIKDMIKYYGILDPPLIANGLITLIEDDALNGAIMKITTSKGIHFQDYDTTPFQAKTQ
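20 nM HPGD preincubated 15 min at room temperature with compound in 50 mM Tris-HCl pH 8, 0.01% Tween 20. Started with 1 mM NAD+ and 30 uM prostaglandin E2; NADH fluorescence (360/450 nm) read 5 times over 30-s intervals, last minus first.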
* = called active by the depositor; ? = inconclusive. On the % scale 0 is the no-effect control and ±100 the full control effect; potency means the concentration at half of the fitted maximal effect. An excerpt (hit frequency here may not be typical).

SMILES	HPGD inh
COc1ccc(-c2cc(=O)c3cc(OC)ccc3[nH]2)cc1	?
Cc1cc2nc(-c3ccc(SCC(=O)N4CCc5ccccc54)nc3)[nH]c2cc1C	?
CCOc1ccc(-n2c(=O)c3c4c(sc3n(CC(=O)NCc3ccco3)c2=O)CCC4)cc1	-3.6%
O=C(Cc1cccc2ccccc12)OCn1nnc2ccccc2c1=O	-15.9%
CCOC(=O)c1sc(NC(=O)Nc2ccc(Cl)cc2)cc1C	-21.5%
CC(C)(C)C(=O)Nc1ccccc1N1CCN(C(=O)c2ccc(Cl)cc2)CC1	-10.7%
Cc1ccc(CSc2nnc(SCC(=O)N/N=C/C=C/c3ccccc3[N+](=O)[O-])s2)cc1	-11.5%
Cc1ccc(CNC(=O)Nc2ccccc2)cc1	?
Cc1ccc(-c2nnc(Nc3ccc4c(c3)OCO4)c3ccccc23)cc1S(=O)(=O)NCCO	-8.5%
CC(=O)N[C@H](c1ccccc1)[C@@]1(C)C[C@@H]1[C@@H](C)C(=O)Nc1ccc2ccccc2c1	-6.3%
CCOc1ccc2c(C)c(C(=O)O)oc2c1OCC	?
CC1(C)CC(=O)c2sc(NS(=O)(=O)Cc3ccccc3)nc2C1	?
COc1cc(C(c2c(C)[nH][nH]c2=O)c2c(C)[nH][nH]c2=O)ccc1OS(=O)(=O)c1ccc(C)cc1	-5.3%
O=C(NCc1cccnc1)c1cccc(NC(=O)c2ccco2)c1	-13.0%
COc1ccc(Cn2c3nc4ccccc4nc3c3c(=O)n(Cc4ccco4)cnc32)cc1	?
CCOc1ccc(-n2c(=O)c3sccc3n(CC(=O)NCc3ccco3)c2=O)cc1	-4.0%
CCN(CC)CCN1C(=O)C(=O)/C(=C(/O)c2ccc(OC(C)C)cc2)C1c1ccncc1 (configuration not stated)	-1.9%
COc1ccc(OCC(=O)N2CCN(S(=O)(=O)c3ccc(Cl)cc3)CC2)cc1	-4.3%
COc1ccc(CCNC(=O)CCCCCNc2nc(=S)[nH]c3ccccc23)cc1OC	?
Cc1cccc(C)c1-n1c(SCC(=O)NCc2ccco2)nc2ccccc2c1=O	-13.2%
Cc1ccc(C)c(S(=O)(=O)N2CCCOC2CNC(=O)C(=O)NCCC2=CCCCC2)c1 (configuration not stated)	-6.2%
Cc1cc(C)cc(NC(=O)c2nnn(Cc3cc(C)ccc3C)c2N)c1	-15.2%
CCOC(=O)c1cc(CC)sc1NC(=O)CC1Sc2ccc(C(F)(F)F)cc2NC1=O (configuration not stated)	-5.9%
CCOC(=O)C1CCN(C(=O)Nc2ccc3nc(-c4ccco4)c(-c4ccco4)nc3c2)CC1	?
Cc1cccc(C(=O)N/N=C/c2ccc(OCC(=O)N3CCCCC3)cc2)c1	-27.9%
O=C(/C=C/c1cccs1)c1ccc(Br)cc1	-28.5%
COc1ccc(NS(=O)(=O)c2cc(NC(=O)c3ccco3)ccc2N2CCCCC2)cc1	-22.3%
COc1ccc(CCNc2ncnc3c2oc2ccccc23)cc1OC	-5.2%
COc1ccc(S(=O)(=O)N(C)CC(=O)N2CCCCCC2)cc1OC	-14.9%
C[C@H]1Cc2c(COc3ccccc3)nc3c(c2CO1)CN(C(=O)C1CC1)CC3	0.0%
Cc1cc2cc(CNS(=O)(=O)c3ccccc3)ccc2n1C	-15.4%
S=C(c1ccc(-c2ccc(Cl)cc2)o1)N1CCCCC1	-21.8%
CCCOc1ccc(OCCNC2CCCC2)cc1	-4.3%
O=C1c2ccccc2C(Nc2ccccc2F)N1c1cccnc1 (configuration not stated)	0.6%
Cc1ccc(Cn2nnc3c(=O)[nH]c(C4CCN(C(=O)c5cccs5)CC4)nc32)cc1	14.1µM*
CC(C)(C)C(=O)Nc1ccc(C(=O)N/N=C/C2CC3C=CC2C3)cc1 (configuration not stated)	-14.2%
CCCC1CCc2c(sc(NC(=O)OCC)c2C#N)C1 (configuration not stated)	-17.9%
O=C(Cn1c(=O)oc2cc(S(=O)(=O)N3CCCCC3)ccc21)N1CCc2ccccc21	-9.6%
COc1ccc(N2CCN(C(=O)C3CCCN(S(=O)(=O)c4cccc5cccnc45)C3)CC2)cc1 (configuration not stated)	-7.1%
O=C1CCN2C=Nc3cccc4ccc1c2c34	-14.6%

Five structures out of the list, arranged by count of non-hydrogen atoms, low to high.
SMILES	HPGD inh
CCCOc1ccc(OCCNC2CCCC2)cc1	-4.3%
O=C(Cc1cccc2ccccc12)OCn1nnc2ccccc2c1=O	-15.9%
Cc1ccc(Cn2nnc3c(=O)[nH]c(C4CCN(C(=O)c5cccs5)CC4)nc32)cc1	14.1µM*
CCOc1ccc(-n2c(=O)c3c4c(sc3n(CC(=O)NCc3ccco3)c2=O)CCC4)cc1	-3.6%
COc1cc(C(c2c(C)[nH][nH]c2=O)c2c(C)[nH][nH]c2=O)ccc1OS(=O)(=O)c1ccc(C)cc1	-5.3%

Some of the entries so far, bar-delimited.
SMILES | HPGD inh
Cc1ccc(C)c(S(=O)(=O)N2CCCOC2CNC(=O)C(=O)NCCC2=CCCCC2)c1 (configuration not stated) | -6.2%
Cc1cc(C)cc(NC(=O)c2nnn(Cc3cc(C)ccc3C)c2N)c1 | -15.2%
CCOC(=O)c1cc(CC)sc1NC(=O)CC1Sc2ccc(C(F)(F)F)cc2NC1=O (configuration not stated) | -5.9%
CCOC(=O)C1CCN(C(=O)Nc2ccc3nc(-c4ccco4)c(-c4ccco4)nc3c2)CC1 | ?
Cc1cccc(C(=O)N/N=C/c2ccc(OCC(=O)N3CCCCC3)cc2)c1 | -27.9%
O=C(/C=C/c1cccs1)c1ccc(Br)cc1 | -28.5%
COc1ccc(NS(=O)(=O)c2cc(NC(=O)c3ccco3)ccc2N2CCCCC2)cc1 | -22.3%
COc1ccc(CCNc2ncnc3c2oc2ccccc23)cc1OC | -5.2%
COc1ccc(S(=O)(=O)N(C)CC(=O)N2CCCCCC2)cc1OC | -14.9%
C[C@H]1Cc2c(COc3ccccc3)nc3c(c2CO1)CN(C(=O)C1CC1)CC3 | 0.0%
Cc1cc2cc(CNS(=O)(=O)c3ccccc3)ccc2n1C | -15.4%
S=C(c1ccc(-c2ccc(Cl)cc2)o1)N1CCCCC1 | -21.8%
CCCOc1ccc(OCCNC2CCCC2)cc1 | -4.3%
O=C1c2ccccc2C(Nc2ccccc2F)N1c1cccnc1 (configuration not stated) | 0.6%
Cc1ccc(Cn2nnc3c(=O)[nH]c(C4CCN(C(=O)c5cccs5)CC4)nc32)cc1 | 14.1µM*
CC(C)(C)C(=O)Nc1ccc(C(=O)N/N=C/C2CC3C=CC2C3)cc1 (configuration not stated) | -14.2%
CCCC1CCc2c(sc(NC(=O)OCC)c2C#N)C1 (configuration not stated) | -17.9%
O=C(Cn1c(=O)oc2cc(S(=O)(=O)N3CCCCC3)ccc21)N1CCc2ccccc21 | -9.6%
COc1ccc(N2CCN(C(=O)C3CCCN(S(=O)(=O)c4cccc5cccnc45)C3)CC2)cc1 (configuration not stated) | -7.1%
O=C1CCN2C=Nc3cccc4ccc1c2c34 | -14.6%

Additional results:
SMILES	HPGD inh
Cc1ccc(S(=O)(=O)N(Cc2ccccc2)c2ccccc2C(=O)NCc2cccnc2)cc1	-5.6%
O=C(NCCc1c[nH]c2ccccc12)c1cccc(S(=O)(=O)Nc2ccccc2Cl)c1	-14.5%
Cc1ccccc1Cn1c(CN2CCc3ccccc3C2)nc2c1c(=O)n(C)c(=O)n2C	-1.4%
O=C(NC1CC1)C1C2C3C4CC5C3C5C4C12 (configuration not stated)	-11.3%
O=C(O)CSc1ncn[nH]1	-2.7%
CC(C)CC(NC(=O)c1ccccc1)C(=O)N/N=C/c1ccco1 (configuration not stated)	-9.4%
Cc1cn(C2OC(COC(=O)c3ccccc3)C(O)C2O)c(=O)[nH]c1=O (configuration not stated)	-7.6%
O=C(CCn1cnc2ccccc21)N/N=C/c1ccccc1O	?
CSCCC(NC(=O)COc1ccccc1)C(=O)N1CCN(c2ccccc2F)CC1 (configuration not stated)	0.5%
CCOC(=O)N=Nc1c(O)n(CC)c2ccccc12	-3.2%
COC(=O)CC(=O)CSc1nc(C)cc(C)c1C#N	-8.1%
COc1ccc2c(OC)cc(-c3ccccc3)nc2c1	-27.1%
O=S(=O)(c1ccc(Br)cc1)N1CCn2c(nc3ccccc32)C1	-3.6%
Cc1cc(C)c(NC(=O)Cn2nnc(C(=O)NCc3cccs3)c2N)c(C)c1	-12.2%
Cn1nc(OC(=O)Nc2ccc(F)cc2)cc1C(F)(F)F	0.2%
Cc1ccc(CS/C(Nc2ccccc2C)=C(\C#N)C(=O)NCc2ccco2)c(C)c1	-25.9%
CS(=O)(=O)N(CC(=O)N1CCN(Cc2ccccc2)CC1)Cc1ccccc1	0.3%
COc1ccc(N=Cc2sc3ccccc3c2Cl)cc1	-10.1%
O=C(O)CCCCCN1C(=O)/C(=C\c2ccncc2)SC1=S	-22.1%
S=c1[nH]nc(-c2cccnc2)n1/N=C/C=C/c1ccccc1	12.6µM*
COc1cccc(Nc2c3c(nc4c(-c5ccccc5)c(C)nn24)CCC3)c1	?
COc1ccc(OC)c(NC(=O)COC(=O)/C=C/c2ccccc2Cl)c1	-6.2%
CSc1nnc(Cc2cc(=O)[nH]c(=O)[nH]2)n1-c1cccc(C)c1	-2.9%
COc1ccc(C2OCC3(CO2)SC(=O)NC3=O)cc1 (configuration not stated)	9.4%
Oc1c(C(c2cccs2)N2CCN(c3ccc(F)cc3)CC2)sc2ncnn12 (configuration not stated)	-4.2%
COCCSc1ccccc1C(=O)Nc1ccc2c(c1)OCCO2	?
O=C(NCc1ccco1)C1CCN(S(=O)(=O)Cc2ccccc2)CC1	-13.8%
N#Cc1ccc(Cl)cc1NC(=O)COC(=O)[C@H](CCC(N)=O)NC(=O)c1ccc(F)cc1	-7.7%
Nc1[nH]n2c(=O)c3c(nc2c1N=Nc1ccccc1)CCCC3	-11.0%
CC1CCCN(C(=O)c2ccc(COc3ccccc3Br)cc2)C1 (configuration not stated)	0.0891µM*
CCOc1ccc(N2C(=O)CC(Sc3ncccn3)C2=O)cc1 (configuration not stated)	0.5%
O=C(Nc1cccc(Cl)c1)Nc1ccc2c(c1)OCO2	-10.2%
CN1CCN(S(=O)(=O)c2ccc3c(c2)OCCO3)CC1	-2.6%
O=C(COc1ccccc1Cl)N1CCCC1	-10.1%
CC1(C)CC(=O)C2=C(C1)N(CC1CCCO1)C(=O)C2(NC(=O)c1cccnc1)C(F)(F)F (configuration not stated)	-5.9%
CCn1c(CNc2ccc(OC)cc2)nnc1SCC(=O)c1ccc(OC)cc1	14.1µM*
Cc1nn(C)cc1CN(C)C(=O)CC12CC3CC(CC(C3)C1)C2	-11.6%
Cc1ccccc1-n1c(-c2cccnc2)n[nH]c1=S	-11.0%
NC(=S)NNC(=O)c1ccccc1	-0.4%
CCOc1ncccc1C(=O)N(C)CC1COc2ccccc2O1 (configuration not stated)	-9.7%
O=C1C2CC=C(Cl)CC2C(=O)N1CNc1ccccn1 (configuration not stated)	2.8%
O=S(=O)(c1ccccc1)N1CCC2(CCN(c3ccncc3)CC2)CC1	-6.4%
COc1ccc(C(=O)Nc2ccc(N3CCCC3)cc2)cc1	-8.7%
CCOc1ccc(OCc2ccc(C(=O)O)o2)cc1	-10.0%
CCOC(=O)C1=C(C)NC(=O)NC1c1c(O)ccc2ccccc12 (configuration not stated)	-3.9%
CCC(C)NS(=O)(=O)c1ccc(-c2csnn2)s1 (configuration not stated)	?
CCOc1ccc(-c2cn(-c3cccc(SC)c3)c(=O)[nH]2)cc1	-6.9%
Cc1ccc(CSCCNS(=O)(=O)c2ccc(C)cc2)cc1	-8.4%
Cc1cnc(NC(=O)CN2CCN(c3ccccc3F)CC2)s1	4.9%
OCCN1CCN(Cc2cc(Br)cc(Br)c2O)CC1	-4.0%

Next entries
SMILES	HPGD inh
CCCS(=O)(=O)N1CCC(C(=O)NCCN2CCC(Cc3ccccc3)CC2)CC1	-0.3%
COc1ccc(S(=O)(=O)NC2(C(F)(F)F)N=C3SCCN3C2=O)cc1 (configuration not stated)	-8.7%
COc1ccc(OC)c(C(=O)CSc2nnc(-c3cccs3)n2C)c1	-7.1%
O=C(Nc1cc(C(F)(F)F)ccc1N1CCOCC1)c1ccc(Cl)nc1	-14.2%
CCC/C=C(\CCC)C(NP(=O)(c1ccccc1)c1ccccc1)c1ccc(C(F)(F)F)cc1 (configuration not stated)	-27.0%
CC(=O)Nc1nc2c(c3c1c(=O)oc1ccccc13)CCCC2	-23.5%
OCC#CCSc1nnc(-c2ccccc2Br)o1	-19.3%
Nc1nc(CSC(=S)N2CCOCC2)nc(Nc2ccccc2)n1	-6.4%
COc1ccc(C2=NN(S(C)(=O)=O)C(c3ccc4nccnc4c3)C2)cc1 (configuration not stated)	-1.2%
CC(=O)N/C(=C/c1ccccc1)C(=O)NC(Cc1ccccc1)C(=O)O (configuration not stated)	-4.6%
CCc1ccccc1NC(=O)CSc1nc2ccccc2n1CC(=O)N1CCCC1	-11.0%
CC(C)n1c(SCC(=O)Nc2ccccc2)nc2c1c(=O)n(C)c(=O)n2C	-5.7%
O=C(Nc1cccc([N+](=O)[O-])c1)c1cnccn1	-11.6%
